Compound activity deposited in PubChem by Southern Research Institute.
Mtb H37Rv: Confirmatory growth inhibition assay against Mycobacterium tuberculosis H37Rv, potency (AID 1949); inhibition, % at 10 µg/mL, or IC50 in µg/mL where a hit was titrated; 100,000 compounds, 1.6% hits; most inactive calls were filed without a number and no value below 0 was filed;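 active = confirmed in a dose series; inconclusive = about 50% or more but not retested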;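 also: bacteria grown 7 days with compound before Alamar blue readout; 0% = untreated bacteria and 100% = reference antibiotic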
An asterisk follows results filed as active; i = inactive; u = inconclusive. These rows are one share of the data, so the mix of outcomes need not match the whole.

SMILES	Mtb H37Rv
CC(=O)Nc1ccc(NC(=O)C2CC(=O)N(c3ccccc3)C2)cc1 (stereo not given)	i
Cc1ccc(S(=O)(=O)Nc2cccc(Cl)c2)c(C)c1	1%
O=C(NCc1ccccc1F)c1cccs1	i
CC1CCc2c(sc(NC(=O)c3cccc(I)c3)c2C#N)C1 (stereo not given)	1%
COc1ccc(/C=C2\SC(=S)N(CCC(=O)Nc3cccc(C)c3C)C2=O)cc1	8%
CS(=O)(=O)N(Cc1ccc(C(=O)Nc2ccc(S(=O)(=O)N3CCCCCC3)cc2)cc1)c1ccccc1	i
O=C(c1cn(-c2ccccc2)nc1-c1cccnc1)n1nnc2ccccc21	3%
COc1ccc(OC)c(S(=O)(=O)Nc2ccc3c(c2)OCCO3)c1	i
CC(C)(C)c1ccc(C(=O)N2CCC(C(=O)Nc3ccc(Cl)c(C(F)(F)F)c3)CC2)cc1	43%
COc1ccc(OC)c(N(CC(=O)N2CCC(C)CC2)S(C)(=O)=O)c1	i
O=C(COc1ccccc1C(=O)O)Nc1ccccc1	i
CCOCCCNC(=O)c1ccc(I)cc1	i
O=C(c1ccc([N+](=O)[O-])cc1)c1nc2c(n1O)CCCCC2	i
COC(=O)c1ccccc1-n1c(CCC(=O)O)ccc1-c1ccc(Br)cc1	i
Cc1cc(Cl)ccc1NC(=S)NCc1ccccc1Cl	1%
CCOC(=O)N1CCN(C(=O)c2ccc(N(C)S(=O)(=O)c3ccccc3)cc2)CC1	i
O=C1N(Cc2ccccc2)c2cccc3cccc(c23)N1Cc1ccccc1	i
Cc1cc(Cl)ccc1NC(=O)Cn1cnc2sc(C)c(C)c2c1=O	i
O=C(Nc1ccccc1I)c1ccc(-c2cccc([N+](=O)[O-])c2)o1	0%
CCc1c(C)sc(NC(=S)N2CCN(S(C)(=O)=O)CC2)c1C(=O)OC	i

Some of the entries so far, bar-delimited.
mol | Mtb H37Rv
CC(=O)Nc1ccc(NC(=O)C2CC(=O)N(c3ccccc3)C2)cc1 (stereo not given) | i
Cc1ccc(S(=O)(=O)Nc2cccc(Cl)c2)c(C)c1 | 1%

The results go on.
SMILES	Mtb H37Rv
COc1ccc([N+](=O)[O-])cc1NC(=O)C12CC3CC(CC(C3)C1)C2	i
CCCC(C)C(=O)N1CCCCC1CC (stereo not given)	i
COc1ccccc1NC(=O)c1ccc2c(c1)C(=O)N(Cc1ccccc1)C2=O	3%
CCOc1ccc2c(=O)c(Oc3ccccc3)c(C)oc2c1C	7%
CCOc1ccc(NC(=O)C(C)Sc2nc3ccc(F)cc3[nH]2)cc1 (stereo not given)	i
Cc1cc(C)cc(NS(=O)(=O)c2ccc3[nH]c(=O)[nH]c3c2)c1	i
COc1ccccc1NC(=O)c1nnn(Cc2ccccc2)c1N	8%
Cc1cc(Br)ccc1OCc1nc(-c2ccc([N+](=O)[O-])cc2)no1	i
Cc1ccccc1-n1c(CN2C(=O)c3ccccc3C2=O)nc2ccccc2c1=O	i
Cc1ccc(Cl)c(OCCCN(C)C)c1	i
CC(C)(C)C(=O)CS(=O)(=O)c1ccc2ccccc2c1	i
CCOC(=O)c1c(NC(=O)Cc2ccccc2)sc(C(=O)Nc2cccc(OC)c2)c1C	i
COc1cc(OC)cc(C(=O)NC(=S)Nc2cccc(C(=O)O)c2)c1	3%
CC1=C(C(=O)OCCOc2ccccc2)C(c2ccc(C(F)(F)F)cc2)C2=C(CCCC2=O)N1 (stereo not given)	i
CCCOc1ccc(OCCN2CCCC(C)C2)cc1 (stereo not given)	1%
CN(C)S(=O)(=O)c1ccc(NC(=O)C2CCCCC2)cc1	i
Cc1cc(S(=O)(=O)Nc2c(C)ccc3nsnc23)ccc1F	i
COCc1nnc(NC(=O)C(C)Oc2ccc(Cl)cc2Cl)s1 (stereo not given)	i
Cn1c(Cc2ccccc2)nnc1SCc1ccc2ccccc2c1	i
O=C(c1cccc(C(=O)N2CCCC2)n1)N1CCCC1	4%

Part of the list above, with bars between the fields.
smiles | Mtb H37Rv
COc1cc(OC)cc(C(=O)NC(=S)Nc2cccc(C(=O)O)c2)c1 | 3%
CC1=C(C(=O)OCCOc2ccccc2)C(c2ccc(C(F)(F)F)cc2)C2=C(CCCC2=O)N1 (stereo not given) | i
CCCOc1ccc(OCCN2CCCC(C)C2)cc1 (stereo not given) | 1%
CN(C)S(=O)(=O)c1ccc(NC(=O)C2CCCCC2)cc1 | i
Cc1cc(S(=O)(=O)Nc2c(C)ccc3nsnc23)ccc1F | i
COCc1nnc(NC(=O)C(C)Oc2ccc(Cl)cc2Cl)s1 (stereo not given) | i
Cn1c(Cc2ccccc2)nnc1SCc1ccc2ccccc2c1 | i

(listing goes on)
SMILES	Mtb H37Rv
COc1ccc2[nH]cc(CCNC(=S)Nc3ccc(Nc4ccccc4)cc3)c2c1	2.9µg/mL*
Cc1nc(NCC2CCCO2)c2c3c(sc2n1)CCC3 (stereo not given)	i
CCN(C(=O)c1ccccc1Br)c1ccccc1C	9%
S=C(Nc1ccc(NC(=S)c2ccc3ccccc3n2)cc1)c1ccc2ccccc2n1	i
CC(C)Oc1ccc2c3c(c(=O)oc2c1)CCCC3	21%
Cc1ccccc1C(=O)Nc1sc2c(c1C(=O)NCc1cccnc1)CCCCC2	i
Cc1c(Br)c([N+](=O)[O-])nn1CC(=O)NCC1CCCO1 (stereo not given)	i
CC(=O)N1CCN(C(=S)c2ccc(N(C)C)cc2)CC1	i
CCC(=O)Oc1ccc(C(=O)Nc2cccc(Br)c2)cc1	i
Cc1ccc(-c2csc3nnc(SCC(=O)Nc4nsc(-c5ccccc5)n4)n23)cc1	i
CCOC(=O)c1ccc(NC(=O)c2cn(CCC#N)nc2-c2cccc(Cl)c2)cc1	i
CCc1cc(=O)oc2cc(C)cc(OCC(=O)Nc3c(C)cccc3C)c12	i
CCOc1ccc(C(=O)NC23CC4CC(CC(C4)C2)C3)cc1Br	i
Cc1ccc(C)c(OCC(=O)O/N=C(\N)c2ccc([N+](=O)[O-])cc2)c1	i
O=C(OCc1ccccn1)c1ccc(COc2cccc3ccccc23)cc1	7µg/mL*
CCn1c(SCC(=O)c2ccc(Br)cc2)nnc1C(C)Oc1ccccc1 (stereo not given)	1%
Cc1ccn(C(=O)c2ccc(Br)cc2)n1	i
CCCCOc1ccc(C(=O)Nc2ccc(NC(=O)CCCC)c(OC)c2)cc1	i
CCn1nc(C)c(NC(=S)NCc2ccco2)c1C	i
O=C(c1ccc([N+](=O)[O-])cc1)N1CCN(Cc2ccc(Br)cc2)CC1	i
COc1ccccc1NC(=O)Cn1c(C)cc(=O)c2cccc(C)c21	i
O=C(OCc1ccc(Cl)cc1)c1cc(=O)[nH]c2ccccc12	i
CC(=O)Cc1nsc(NC(=O)c2ccc(COc3ccccc3)o2)n1	i
CCN(CC(=O)N1CCCC1)S(=O)(=O)c1ccc2ccccc2c1	i
O=C(NCc1cccnc1)C1CC(=O)N(c2ccc(Cl)cc2)C1 (stereo not given)	i
CCN(CC)C(=O)c1c(NC(=O)c2ccco2)sc2c1CCCCC2	4%
Cn1c(NCc2ccco2)nc2c1c(=O)n(Cc1ccc(Cl)cc1Cl)c(=O)n2C	i
COc1ccc(-c2c3c(=O)n(C)c(=O)n(C)c3cn2C2CCCCC2)cc1	2%
CCOc1ccc2nc(Nc3nc(CSc4nnnn4-c4ccccc4)cc(=O)[nH]3)nc(C)c2c1	6%
COc1ccc(NC(=O)NCc2ccc(Cl)c(Cl)c2)cc1OC	i
CNCCCCOc1c(C)cc(Br)cc1C	i
COC(=O)c1sccc1NC(=O)c1ccc([N+](=O)[O-])cc1	i
C=CCn1c(SCC(=O)N2CCN(c3ccccc3)CC2)nnc1-c1ccco1	i
CCOC(=O)c1ccc(NC(=O)CSc2nnc(-c3ccc(OC)cc3)o2)cc1	0.17µg/mL*
CSCCC(NC(=O)c1cc(CC(C)C)oc1C)C(=O)O (stereo not given)	i
C=CCn1c(SC(C)C(=O)Nc2ccc(OCC)cc2)nnc1-c1ccc(Cl)cc1Cl (stereo not given)	i
C=CCNC(=O)C1CC1(c1cccc(C)c1)c1cccc(C)c1 (stereo not given)	i
CN(C)C(=O)Oc1ccc2c(=O)c(Oc3ccccc3Br)c(C(F)(F)F)oc2c1	2%
O=C(NCc1ccc(Cl)cc1)C1CCCO1 (stereo not given)	1%
CCOC(=O)c1cnc2c(C(F)(F)F)cccc2c1NCCN(C)C	i
COc1ccccc1C(CCN(Cc1ccc(OC(C)C)cc1)C(C)=O)c1ccc2c(c1)OCO2 (stereo not given)	10%
COc1cc(NC(=O)C2CCCCC2)c2ncccc2c1	0%
N#CCc1ccc(NC(=O)CCc2ccccc2)cc1	i
CC1SC(NC(=O)CSc2nc(-c3ccccc3)cc(-c3ccccc3)n2)=NC1=O (stereo not given)	1%
CSc1ccc(CN2CCC(N3CCN(c4ccccc4F)CC3)CC2)cc1	i
S=C(NC1CCCC1)NC1CCCC1	i
Cc1ccccc1NS(=O)(=O)c1ccc(NC(=O)CCc2ccccc2)cc1	16%
Cn1c(CNC(=O)c2ccccc2)nnc1SCC(=O)Nc1cc(Cl)ccc1Cl	i
Cc1cccc(C)c1NC(=S)NC(=O)C(c1ccccc1)c1ccccc1	i
COc1cccc(NC(=O)CSc2nnc(C(C)NC(=O)c3ccccc3Br)n2C)c1 (stereo not given)	i
CN(C)c1ccc(C(=S)NCc2ccco2)cc1	3%
COc1ccc(N(CC(=O)Nc2ccccc2C(=O)N2CCOCC2)S(C)(=O)=O)cc1Cl	i
COc1ccc(Br)cc1C=Nn1c(-c2ccc(Cl)cc2Cl)n[nH]c1=S	i
c1ccc(Nc2nc(N3CCCCC3)nc(N3CCNCC3)n2)cc1	8%
C=CCn1c2ccccc2c2nnc(SC(CC)C(=O)Nc3nc(-c4ccccc4)cs3)nc21 (stereo not given)	3%
Cc1ccc(-c2nn(-c3cc(N4CCNCC4)ccc3[N+](=O)[O-])c(=O)c3ccccc23)cc1	u
O=C(NCCSc1ccc(Cl)cc1)c1ccco1	i
Cc1ccc(C(=O)Nc2c(C)cc(Br)cc2C)c(C)c1	44%
O=C1NC(=O)C(CCc2ccncc2)(CCc2ccncc2)C(=O)N1CCc1ccccc1	i
CN=C(N)c1cc(I)cc([N+](=O)[O-])c1	i
(next part)
SMILES	Mtb H37Rv
CCOc1ccc(NC(=O)CSc2nnc3c(C)cc4ccccc4n23)cc1	i
Cc1cc(C)cc(N2C(=O)CC(Sc3nnnn3-c3ccccc3)C2=O)c1 (stereo not given)	i
COc1cc(Cl)ccc1S(=O)(=O)N1CCN(c2ccc(C)c(C)c2)CC1	i
CCOC(=O)C1CCN(C(=O)CSCc2c(Cl)cccc2Cl)CC1	1%
CC(=O)OC(C(=O)Nc1nc(-c2ccccc2)c(-c2ccccc2)o1)c1ccccc1 (stereo not given)	25%
O=C(c1cccc(S(=O)(=O)N2CCCCC2)c1)N1CCc2ccccc21	i
Cc1cc2nc(-c3ccc(C)c(NC(=O)c4ccc(Br)cc4)c3)oc2cc1C	1%
O=[N+]([O-])c1ccccc1S(=O)(=O)NC1CC1	i
CC(C)N(Cc1ccccc1)S(C)(=O)=O	i
O=C(NNC(=O)C1CCCCC1)c1ccc(Br)cc1	i
Cc1cc(C(C)(C)C)ccc1OCCOCCN1CCN(C)CC1	i
COC(=O)Nc1ccc(S(=O)(=O)N2CCCC(C(F)(F)F)C2)cc1 (stereo not given)	i
O=C(c1ccc(NC(=S)Nc2ccc(F)cc2F)cc1)N1CCOCC1	i
COc1cccc(C(=O)NCc2cccc(CNC(=O)c3cccc(OC)c3)c2)c1	7%
O=C(O)Cn1cc(C(=O)C2CC2)c2ccccc21	i
COc1ccc(C(=O)N2CCN(c3ccc([N+](=O)[O-])c(NCC4CCCO4)c3)CC2)cc1 (stereo not given)	i
CC(=O)Nc1ccc(Br)c2cccnc12	i
CC(=O)NC(c1ccc(C(C)C)cc1)c1cc(Cl)c2cccnc2c1O (stereo not given)	i
CC(=O)Nc1ccc(NC(=O)c2oc3cc(C)c(C)cc3c2C)cc1	i
O=c1c2ccccc2nc(/C=C/c2ccc([N+](=O)[O-])o2)n1-c1ccc2ccccc2c1	i
Cc1c(NC(=O)c2cnn3cccnc23)c(=O)n(-c2ccccc2)n1C	i
COc1ccc2c(Cl)c(C(=O)N3CCOCC3)sc2c1Cl	i
Cc1nc2ccccc2c(=O)n1NC(=O)COc1ccccc1	i
O=C(COc1ccc2ccccc2c1Br)N1CCN(Cc2ccccc2)CC1	6%
C=CCn1c(SCC(=O)NC(C)c2ccccc2)nnc1-c1cc(Br)ccc1O (stereo not given)	i
Cc1nnc(NCCN2CCOCC2)[nH]c1=O	i
O=C(NCc1ccc(Cl)cc1Cl)c1cccc([N+](=O)[O-])c1	3%
O=C(c1cc(-c2ccc3c(c2)OCO3)nc2ccccc12)N1CCN(c2ncccn2)CC1	i
COc1ccc(-c2nnc(SCC(=O)Nc3ccc(Cl)cc3Cl)n2C)cc1	i
OCc1ccc(OCc2ccc(F)cc2)c(Br)c1	8%
CC(C)c1ccc(NC(=O)Cn2cnc3c2c(=O)n(C)c(=O)n3C)cc1	i
COc1cccc(NC(=O)CSc2nnc(Cc3ccccc3)n2-c2ccc(C)cc2)c1	i
COc1ccc(OCC(=O)Nc2sc(Cc3ccccc3)c(C)c2C(N)=O)cc1	i
CCOC(=O)c1sc(NC(=S)NC(=O)c2ccco2)nc1C	i
COc1ccc(N2CCN(C(=O)COc3ccc(Br)cc3Cl)CC2)cc1	i
CC1CCCCN1S(=O)(=O)c1ccc(NC(=O)c2ccc(C(C)(C)C)cc2)cc1 (stereo not given)	23%

Gathered by group, the entries above with a cyano group.
SMILES	Mtb H37Rv
CC1CCc2c(sc(NC(=O)c3cccc(I)c3)c2C#N)C1 (stereo not given)	1%
CCOC(=O)c1ccc(NC(=O)c2cn(CCC#N)nc2-c2cccc(Cl)c2)cc1	i
N#CCc1ccc(NC(=O)CCc2ccccc2)cc1	i
